# StopGo RLuc: FMDV 2A StopGo reporter, Renilla signal; HEK cells with a luciferase reporter of 2A StopGo recoding; Potency, µM (series often up to 57.5 µM), for the others: at the top dose signal change, negative = less light; hit rate 0.32% among 120,000; AID 1745857; active means well fitted falling curve with a large enough effect; inconclusive means small, poorly fitted or top-dose-only effect; inactive means no such curve, though single readings can be large or run the other way; note: nearly all actives have a fitted effect of over 55% in size; overnight with compound
# 2A firefly: FMDV 2A StopGo reporter, firefly signal; Potency, µM (titrated, usually from 57.5 µM), for the others: at the top dose signal change, negative = less light; HEK cells with a luciferase reporter of 2A StopGo recoding; AID 1745856; hit rate 0.23% among 120,000; active = well fitted falling curve with a large enough effect; inconclusive = small, poorly fitted or top-dose-only effect; inactive = no such curve, though single readings can be large or run the other way; note: nearly all actives have a fitted effect of over 60% in size; overnight with compound
# * marks the source's active call; other numbers are inactive results; ? = inconclusive; [ ] = dose if it differs, or a comment. % is set by controls: 0 for no effect and ±100 for the full control effect; potency is the fitted concentration of half-maximal effect. Some of the compounds tested; the hit share may differ from the screen's.
SMILES,StopGo RLuc,2A firefly
Clc1ccc(C=Nc2ccccc2Cc2ccccc2)cc1,-8%,16%
O=C(Cn1cc(C(F)(F)F)cc(Cl)c1=O)Nc1cc(Cl)ccc1Cl,-7%,13%
CCc1ccccc1NC(=O)Nc1ccc(F)cc1,55%[activator],0%
O=C(CSc1nc2cc(Cl)ccc2s1)NC1CC1,45%,161%[activator]
Cc1ccc(NC(=O)CSc2nc3nccnc3c(=O)n2CCc2c[nH]c3ccccc23)cc1C,-13%,-7%
CCCCOC(=O)c1ccc(NC(=O)Cc2coc3c(C)c(C)ccc23)cc1,16%,-8%
CC(C)(C)C1CCc2c(sc(NC(=O)c3cc4ccccc4c(=O)o3)c2C(N)=O)C1 (configuration not stated),-4%,-16%
CCc1ccc(C(=O)N(C)C)cc1,5%,8%
Cc1cc(C)cc(NC(=O)CSc2nc3ccccc3nc2N2CCCC2)c1,40%,30%
CCc1ccc(-c2nc(CSCC(=O)NCc3ccc(C)cc3)c(C)o2)cc1,3%,-15%
NC(=O)C1CCN(C(=O)c2ccc3nc(C(F)(F)F)sc3c2)CC1,9%,41%[activator]
COc1cccc(-c2nc(CS(=O)(=O)CC(=O)NCCc3ccc(OC)cc3OC)c(C)o2)c1,4%,-12%
CC(C)(C)OC(=O)COc1ccc2c(=O)c(-c3ccccc3)coc2c1,-2%,0%
O=C(NCc1ccc(F)cc1)Nc1c(NC2CCCC2)c2ccccc2oc1=O,-2%,-9%
CC(=O)N(CCCNC(=O)c1nn(C)c(=O)c2ccccc12)C(C)C,-3%,4%
COc1ccc(NC(=O)C2c3ccccc3Oc3ccccc32)cc1F,-7%,87%[activator]
Cn1c(=O)oc2cc(S(=O)(=O)NCCC(=O)NCc3ccc(F)cc3)ccc21,8%,-11%
CC(C)NC(=O)c1ccccc1NC(=O)C(Cl)Cl,-4%,-2%
Cc1cc(C(=O)CSc2nnc(C(C)Oc3ccc(F)cc3)o2)c(C)n1Cc1ccco1 (configuration not stated),?,?
Cc1ccc(S(=O)(=O)c2cn(CC(=O)Nc3ccc4c(c3)OCO4)c3ccc(C)cc3c2=O)cc1,25%,-15%
CCc1c(C)sc(NC(=O)c2cc3nc(-c4ccc(OC)cc4)cc(C(F)(F)F)n3n2)c1C(=O)OC,-6%,-11%
Cc1ccccc1-c1nnc(SCc2coc(-c3cccs3)n2)n1C,17%,68%[activator]
CCn1ccc2cc(S(=O)(=O)N3CCCN(C(=O)Nc4cccc(Cl)c4)CC3)ccc21,37%[activator],10%
CCOc1cccc(CNc2ccc(O)cc2)c1OCc1ccccc1Cl,26%,0%
COc1ccc(-c2cc3ccc(O)c(CN4CCN(CCO)CC4)c3oc2=O)cc1OC,-5%,0%

# Next structures.
SMILES,StopGo RLuc,2A firefly
CC(C)(C)c1nc2cc(NC3CCCCNC3=O)ccc2o1 (configuration not stated),12%,196%[activator]
Cc1cccc(Cn2cccc2CNS(=O)(=O)c2ccc(Br)cc2)c1,404%[activator],3%
Cc1nc(NCc2ccco2)sc1C(=O)NCC(C)C,-17%,0%
COc1ccc(/C=C(\C#N)c2nc(-c3cc4ccccc4oc3=O)cs2)cc1OC,-12%,-19%
O=C1CC(c2ccsc2)c2ncn(-c3ccccc3)c2N1 (configuration not stated),8%,98%[activator]
N#Cc1cn(CC(=O)Nc2ccc(F)c(Cl)c2)c2ccccc12,2%,18%
COCCNC(=O)CCCn1c(SCC(=O)Nc2cccc(C)c2)nc2c(sc3ccccc32)c1=O,-7%,-18%
CCOC(=O)c1cccc(Nc2nc3ccccc3nc2NS(=O)(=O)c2cccc(C)c2)c1,34%[activator],30%[activator]
CCC(CC)(Cc1nc2ccccc2s1)C(=O)O,2%,18%
CCC(CC)C(=O)Nc1ccc2nc(SCC(=O)N3CCc4ccccc43)sc2c1,12%,-7%
CSc1ccc(C2c3c(oc4ccccc4c3=O)C(=O)N2CCCN2CCOCC2)cc1 (configuration not stated),29%,54%[activator]
Cc1ccc(C)c(NC(=O)CCNC(=O)Cc2ccccc2)c1,-1%,2%
CCOC(=O)c1cccc(NS(=O)(=O)c2ccc3[nH]c4c(c3c2)CCCC4)c1,277%[activator],4%
COc1ccc(-c2cc(=O)oc3c4c(ccc23)OCN(Cc2ccccc2)C4)cc1,4%,-15%
Cc1ccc2nc(N3C(=O)C(O)=C(C(=O)c4ccc(C)o4)C3c3cccc(O)c3)sc2c1 (configuration not stated),4%,0%
CCCCSCCCNC(=O)c1cn(CC)c2ccc(S(=O)(=O)N3CCCCCC3)cc2c1=O,-11%,-31%
O=C(NC1CCN(Cc2ccc(Cl)cc2)CC1)c1cc(C2CC2)nc2ccccc12,-10%,-6%
CC1(c2ccc3c(c2)OCCO3)NC(=O)N(CC(=O)NCCc2c[nH]c3ccccc23)C1=O (configuration not stated),-6%,-2%
COc1ccc(S(=O)(=O)NC2CC2)c2cccnc12,135%[activator],-1%
Cc1cccc(-c2nnc(SCC(=O)Nc3c(C)cc(C)cc3C)n2N)c1,-9%,-1%
CC(=O)N1N=C(c2c(-c3ccccc3)c3cc(Cl)ccc3n(C)c2=O)CC1c1cccs1 (configuration not stated),-25%,-26%
CC(C)C(=O)Nc1nnc(S(=O)(=O)N(C)Cc2ccc(F)cc2)s1,8%,-7%
O=c1oc2ccccc2c(N2CCCC2)c1NS(=O)(=O)c1ccc(F)cc1,7%,7%
Cc1cccc(N(C)C(=O)Cn2nc(Cc3cccnc3)c3ccccc3c2=O)c1,8%,-1%
O=c1oc2ccccc2c(NC2CCCCC2)c1NS(=O)(=O)c1ccc(Cl)s1,81%[activator],-3%

# A second format for part of the listing above:
CCOC(=O)c1cccc(Nc2nc3ccccc3nc2NS(=O)(=O)c2cccc(C)c2)c1
  StopGo RLuc: 34%[activator]
  2A firefly: 30%[activator]
CC(C)C(=O)Nc1nnc(S(=O)(=O)N(C)Cc2ccc(F)cc2)s1
  StopGo RLuc: 8%
  2A firefly: -7%

# (continued)
SMILES,StopGo RLuc,2A firefly
CCc1ccc(S(=O)(=O)c2cn(C)c3cc(N4CCCCC4C)c(F)cc3c2=O)cc1 (configuration not stated),20%,18%
O=C(CSc1nc2ccccc2nc1N1CCCC1)Nc1ccc(Br)cc1,25%,20%
CCOc1ccccc1C1CC(=O)Nc2c1c(=O)n(C)c1ncnn21 (configuration not stated),5%,3%
C[C@@H](NC(=O)c1ccc(C#Cc2cccc(F)c2)cn1)C(C)(C)O,-16%,107%[activator]
Cc1ccc(C)c(CN2C(=O)c3ccccc3S(=O)c3ccc(C(=O)NCc4ccco4)cc32)c1 (configuration not stated),-4%,-6%
Cc1ccc(CCNC(=O)c2ccc(CNS(=O)(=O)c3ccccc3)cc2)cc1,0%,4%
Cc1cc(CNC(=O)COc2ccc(F)cc2)c2ccccc2n1,?,?
CCOc1ccc(Nc2oc(-c3ccccc3C)nc2C#N)cc1,4%,28%
CCN(CC)S(=O)(=O)c1cc(C(=O)Nc2ncn(Cc3ccccc3)n2)c(Cl)cc1Cl,-7%,8%
Cc1cc(C)cc(N2CC(c3nc(-c4ccc5c(c4)OCO5)no3)CC2=O)c1 (configuration not stated),2%,22%
Cn1nc(C(C)(C)C)cc1NC(=O)c1ccccc1F,0%,11%
CS(=O)(=O)N(CC(=O)Nc1ccc(Br)cc1)c1ccc2c(c1)OCO2,181%[activator],26%
Cc1oc(-c2ccccc2)nc1C(=O)OCC(=O)N1CCCCC1,9%,0%
CCOC(=O)c1[nH]c2ccc(F)cc2c1NC(=O)C1CC1,-14%,-13%
CC(C)Cn1nc(C(=O)Nc2ccc(I)cc2)c2ccccc2c1=O,16%,0%
O=C(O)c1cccc2c(Br)cccc12,-2%,19%
CCOc1ccc(CCNC(=O)c2ccc(-n3c(C)cc4c3CCCC4)cc2)cc1OCC,-1%,-5%
N#Cc1cc2c(nc1SCC(=O)N1CCCCC1)CCCC2,16%,29%
CC(=O)c1ccc(NC(=O)CCn2cccn2)cc1,-6%,3%
CC(C)c1ccccc1OCC(=O)Nc1cc(C(F)(F)F)ccc1N1CCOCC1,-12%,?
NC(CC(=O)O)C(F)(F)F (configuration not stated),8%,0%
O=CN1CCCNCC1,5%,0%
CCOC(=O)c1coc(CNC(=O)c2coc(C)c2)c1,10%,21%
CCCc1ccc(-c2csc(NC(=O)c3cnc4c(c3)c(=O)n(C)c(=O)n4C)n2)cc1,-10%,92%[activator]
Cn1cc2c(C(F)(F)F)cc(=O)n(CCC(=O)O)c2n1,0%,6%

# Another view of some results above.
Compound: Cn1nc(C(C)(C)C)cc1NC(=O)c1ccccc1F
  StopGo RLuc = 0%	2A firefly = 11%

Compound: CS(=O)(=O)N(CC(=O)Nc1ccc(Br)cc1)c1ccc2c(c1)OCO2
  StopGo RLuc = 181%[activator]	2A firefly = 26%

Compound: Cc1oc(-c2ccccc2)nc1C(=O)OCC(=O)N1CCCCC1
  StopGo RLuc = 9%	2A firefly = 0%

# (continued)
SMILES,StopGo RLuc,2A firefly
COc1cc(/C=N/O)cc(Br)c1OC(C)=O,17%,15%
Cc1ccc(C(=O)c2cn(CC(=O)Nc3ccc4c(c3)OCCO4)c3nc(C)ccc3c2=O)cc1,-9%,1%
Cc1c(C(C)(C)C)sc(=N)n1C,-14%,5%
CCCCC(=O)Nc1ccc2nc(N3CCN(CC)CC3)cc(C)c2c1,-3%,15%
CSc1nc(N)c2c(n1)NC1=C(C(=O)CC(C)(C)C1)C2c1cccs1 (configuration not stated),35%[activator],15%
COc1ccccc1CNC(=O)CSc1nc(-c2ccc(OC)c(OC)c2)cc(C(F)(F)F)n1,0%,-15%
CCc1c(C(=O)Nc2cccc(OC)c2)cnn1-c1ccc(OC)nn1,12%,216%[activator]
C=CCSc1ccccc1NC(=O)c1cc(C)cc(C)c1,21%,102%[activator]
CC1CCc2c(sc3nnn(CC(=O)Nc4c(C(C)C)cccc4C(C)C)c(=O)c23)C1 (configuration not stated),-13%,-23%
Cc1ccc(C(=O)NCc2ccc(-c3csc(C)n3)cc2)cc1,5%,0%
CC(=O)c1nn(-c2ccc(OC(F)(F)F)cc2)nc1Nc1ccc(Cl)cc1,-13%,-8%
Cc1ccc(CNC(=O)C2CCN(S(=O)(=O)N3CCC(C)CC3)CC2)cc1,-10%,-12%
CCOC(=O)c1c(C)[nH]c(C)c1S(=O)(=O)N1CCC(C(=O)NCc2ccc(C)cc2)CC1,42%[activator],-4%
O=C(NC(c1ccccc1)c1ccccn1)c1cccc[n+]1[O-] (configuration not stated),-3%,-3%
CC(C)CC(NC(=O)CSc1ccccc1)C(=O)N(C)C (configuration not stated),-2%,3%
O=C(N/N=C/c1cc(Br)cs1)c1ccccc1,60%[activator],289%[activator]
N#Cc1cccnc1N1CCN(C(C(=O)O)c2c[nH]c3cc(CO)ccc23)CC1 (configuration not stated),-5%,1%
Cn1ccnc1C(NC(=O)Cc1n[nH]c(=O)c2ccccc12)c1cccc(F)c1 (configuration not stated),0%,0%
O=C1CC(C(=O)Nc2ccc(Br)cc2)c2ccc(F)cc2N1 (configuration not stated),0%,3%
COCCn1c(N(C)Cc2ccccc2)nc2c1c(=O)[nH]c(=O)n2C,6%,24%
CCOc1ccccc1CNS(=O)(=O)c1ccc2c(c1)CCCN2C(C)=O,112%[activator],5%
CCOc1ccc(NC(=O)CSc2cn(CC(=O)N3CCOCC3)c3ccccc23)cc1,18%,15%
CCOc1ccc(-n2c(C)c(C(C)=O)c3cc(OCC(N)=O)ccc32)cc1,-6%,-10%
Cc1ccccc1CC(=O)NCC(C)C,2%,0%
Cc1ccc(C(=O)c2oc3ccccc3c2NC(=O)c2cc(=O)c3cc(C)ccc3o2)cc1,-14%,-22%

# Continuation.
SMILES,StopGo RLuc,2A firefly
Cc1ccc(-n2c(/C=C\c3ccc(F)c(F)c3)nc3ccccc3c2=O)c(C)c1,3.5µM*,7.9µM*
CC(C)CCNc1nc2c(c(=O)n(C)c(=O)n2C)n1Cc1cccc(Cl)c1,-8%,-2%
CC(=O)N/N=C/c1ccccc1,0%,12%
CC(C)(C)C1CCc2nc(Cl)c(C#N)c(C#N)c2C1 (configuration not stated),-3%,6%
Cc1cc(=O)oc2cc(OCC(=O)c3ccccc3)ccc12,0%,0%
COC(=O)c1ccccc1NC(=O)Cn1c(CCC(=O)O)ccc1-c1cccs1,-8%,-14%
COc1ccc(CC(=O)Nc2nonc2-c2ccc3c(c2)CCCC3)cc1,17%,3%
Cc1ccc2c(c1)N(CCCC(=O)NCc1cccc(F)c1)C(=O)CO2,20%,0%
CN(CC(=O)NC(N)=O)CC1CCCCC1,1%,-10%
CCOCCOC(=O)COc1ccc2c(=O)c(-c3ccc(OC)c(OC)c3)c(C(F)(F)F)oc2c1,-2%,-3%
Cn1nnc2c(N3CCN(c4ccccc4)CC3)ncnc21,-13%,18%
CCOc1ccc(NC(=O)c2cccc3c(=O)c4c([nH]c23)CCCC4)cc1,-14%,-11%
Cc1cc(C)n(-c2nc3c(c(=O)n(Cc4ccccc4F)c(=O)n3C)n2CC(C)C)n1,-4%,0%
O=C(O)[C@@H]1CSCN1,-10%,-15%

# 6 structures from above, sorted by SMILES length, highest first:
SMILES,StopGo RLuc,2A firefly
Cc1ccc(S(=O)(=O)c2cn(CC(=O)Nc3ccc4c(c3)OCO4)c3ccc(C)cc3c2=O)cc1,25%,-15%
Cn1c(=O)oc2cc(S(=O)(=O)NCCC(=O)NCc3ccc(F)cc3)ccc21,8%,-11%
CC(C)(C)OC(=O)COc1ccc2c(=O)c(-c3ccccc3)coc2c1,-2%,0%
Cc1ccc(C(=O)NCc2ccc(-c3csc(C)n3)cc2)cc1,5%,0%
O=C(CSc1nc2cc(Cl)ccc2s1)NC1CC1,45%,161%[activator]
CC(=O)N/N=C/c1ccccc1,0%,12%

# Source: PubChem BioAssay
